Screens as filed in PubChem BioAssay.
Vaccinia inh – blocks a specific stage of Vaccinia orthopoxvirus infection, primary screen, cell-based, single point | activity change (mCherry), % (concentration not given with the values) | Vaccinia-infected cells, mCherry/Venus stage reporter fluorescence; stronger effect = lower value; some inactives read as strong as hits | hit rate 0.01% among 89,000 | AID 1053133, 2014;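 active = mCherry past -33% and 40 or more points under the early reporter, replicates agreeing; inconclusive = past -33% without that gap or agreement; tested in A549 cells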;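 also: scaled between vehicle wells and reference inhibitor wells; 23 nL library stock went into each well; one replicate is shown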
Vaccinia inh Venus – second read-out of Vaccinia inh, no call of its own (marks repeat the call); activity change (Venus), %; measured here: Venus reporter, other viral stage;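 negative = less Venus signal; first of two replicates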
The depositor's hits bear a star; u = inconclusive; x = not tested or not shown.

SMILES | Vaccinia inh | Vaccinia inh Venus
Cc1noc(C)c1NC(=O)N(C)C[C@@H]1Oc2c(NC(=O)c3nc4ccccc4s3)cccc2C(=O)N([C@@H](C)CO)C[C@@H]1C | -5 | -2
C[C@H](CO)N1C[C@H](C)[C@@H](CN(C)C(=O)Nc2ccc3c(c2)OCO3)Oc2ccc(NS(=O)(=O)c3cn(C)cn3)cc2C1=O | 13 | 6
CC(C)CC#Cc1cnc2c(c1)C(=O)N([C@@H](C)CO)C[C@@H](C)[C@H](CN(C)Cc1ccccc1F)O2 | u | x
COc1ccc(NC(=O)N[C@@H]2CC[C@@H](CCNC(=O)CCN3CCCCC3)O[C@H]2CO)cc1 | 4 | 3
C[C@@H]1CN([C@@H](C)CO)C(=O)c2cc(-c3ccc(F)cc3)cnc2O[C@@H]1CN(C)C(=O)CN(C)C | 8 | 6
C[C@H]1CN([C@@H](C)CO)C(=O)c2cc(-c3ccccc3F)cnc2O[C@H]1CN(C)Cc1ccccc1F | -11 | -10
C[C@H](CO)N1C[C@H](C)[C@@H](CN(C)S(=O)(=O)c2ccc(Cl)cc2)Oc2ccc(NC(=O)Cn3cnnn3)cc2CC1=O | 8 | 3
COc1ccc(NC(=O)Nc2ccc3c(c2)C(=O)N([C@H](C)CO)C[C@@H](C)[C@@H](CN(C)S(C)(=O)=O)O3)cc1 | 7 | 11
CN(C)CCCNC(=O)C[C@H]1CC[C@H]2[C@H](COc3ccc(NC(=O)c4cccc(F)c4)cc3C(=O)N2C)O1 | 7 | 6
COCCNC(=O)C[C@H]1C[C@@H]2c3cc(NC(=O)Nc4ccc(OC)cc4)ccc3O[C@@H]2[C@H](CO)O1 | 12 | 10
C[C@@H]1CCCCO[C@H](CN(C)CC2CC2)[C@H](C)CN([C@@H](C)CO)C(=O)c2cc(NC(=O)CCC(F)(F)F)ccc2O1 | -12 | -11
COc1ccc(S(=O)(=O)Nc2ccc3c(c2)CC(=O)N([C@H](C)CO)C[C@@H](C)[C@@H](CN(C)S(=O)(=O)c2ccc(Cl)cc2)O3)cc1 | -6 | -3
COc1ccc2c3c(n(C)c2c1)[C@@H](CO)N(C(=O)C1CCC1)CC31CCN(C)CC1 | -5 | -2
CCC(=O)Nc1ccc2c(c1)OC[C@@H](C)N(Cc1ccccn1)C[C@@H](C)[C@@H](OC)CN(C)C2=O | 0 | 4
Cc1noc(C)c1NC(=O)N(C)C[C@@H]1OCCCC[C@H](C)Oc2ccc(NC(=O)CCC(F)(F)F)cc2C(=O)N([C@H](C)CO)C[C@H]1C | 13 | 1
CN1C(=O)c2cc(NS(=O)(=O)c3ccccc3Cl)ccc2OC[C@H]2O[C@@H](CC(=O)O)CC[C@@H]21 | 6 | 2
CO[C@@H](CN(C)C(=O)c1cnccn1)[C@H](C)CN([C@H](C)CO)S(=O)(=O)c1ccc(F)cc1 | 16 | 14
C[C@H](CO)N1C[C@H](C)[C@@H](CN(C)Cc2cccc(O)c2)OCc2cn(nn2)CCCC1=O | 17 | 17
C[C@@H]1CN([C@@H](C)CO)C(=O)Cc2cc(NC(=O)Nc3ccccc3)ccc2O[C@@H]1CN(C)S(=O)(=O)c1cccs1 | -4 | 4
COc1ccc(CN(C)C[C@@H]2Oc3ccc(NC(=O)Nc4ccc5c(c4)OCO5)cc3C(=O)N([C@H](C)CO)C[C@H]2C)cc1 | -12 | -7
C[C@@H]1CN([C@H](C)CO)C(=O)c2cccc(NC(=O)c3ccncc3)c2O[C@H]1CN(C)C(=O)Nc1cccc2ccccc12 | 8 | 5
C[C@H]1CN([C@@H](C)CO)C(=O)c2cc(NC(=O)Cc3cn(C)c4ccccc34)ccc2O[C@H]1CN(C)Cc1ccc(C(F)(F)F)cc1 | -24 | -26
CN1C(=O)c2cc(NC(=O)C3CCCC3)ccc2OC[C@@H]2O[C@@H](CC(=O)NCC3CC3)CC[C@@H]21 | -4 | -11
CO[C@H]1CN(C)C(=O)c2ccc(NC(=O)Nc3ccc(F)cc3)cc2OC[C@H](C)NC[C@H]1C | -1 | 3
C[C@H]1CN([C@@H](C)CO)S(=O)(=O)c2ccc(-c3ccccc3F)cc2O[C@H]1CN(C)CC1CC1 | -11 | -11

The listing continues:
SMILES | Vaccinia inh | Vaccinia inh Venus
COCC(=O)N(C)C[C@@H]1Oc2ncc(-c3ccc(F)cc3)cc2C(=O)N([C@H](C)CO)C[C@H]1C | 14 | 12
CS(=O)(=O)Nc1ccc2c(c1)[C@H]1C[C@H](CC(=O)NCc3ccc(Oc4ccccc4)cc3)O[C@H](CO)[C@H]1O2 | -34 | -28
Cc1noc(C)c1S(=O)(=O)N(C)C[C@@H]1Oc2ccc(NC(=O)CCC(F)(F)F)cc2CC(=O)N([C@@H](C)CO)C[C@H]1C | 22 | 12
O=C(c1cccnc1)N1CC[C@@H]2[C@H](CO)Nc3ccc(-c4ccc(F)cc4)cc3[C@@H]21 | 0 | 8
C[C@H](CO)N1C[C@H](C)[C@@H](CN(C)Cc2ccc(Oc3ccccc3)cc2)Oc2c(NS(=O)(=O)c3cccs3)cccc2C1=O | -1 | 0
O=C(N[C@@H]1CC[C@@H](CC(=O)N2CCCCC2)O[C@@H]1CO)c1ccc2c(c1)OCO2 | 5 | 0
C[C@@H]1CN([C@@H](C)CO)C(=O)c2cc(C3=CCCC3)cnc2O[C@H]1CN(C)C(=O)Cc1ccncc1 | 30 | 21
C[C@H](CO)N1C[C@H](C)[C@H](CN(C)Cc2ccc(C(F)(F)F)cc2)Oc2ccc(NS(=O)(=O)c3ccc(Cl)cc3)cc2CC1=O | u | x
COc1ccc2c3c(n(C)c2c1)[C@@H](CO)N(C(=O)Nc1ccc(F)cc1)CC31CCN(C(=O)NC(C)C)CC1 | -4 | -14
C[C@H]1CN([C@@H](C)CO)S(=O)(=O)c2ccc(-c3cccc(C#N)c3)cc2O[C@@H]1CN(C)C(=O)c1ccccc1 | -4 | -19
C[C@H]1CN([C@@H](C)CO)C(=O)c2ccccc2-c2ccccc2CO[C@H]1CN(C)S(=O)(=O)CC(F)(F)F | 11 | -1
O=C(N[C@@H]1CC[C@H](CCNC(=O)C2CC2)O[C@H]1CO)c1ccccn1 | -10 | -10
C[C@@H]1CN([C@H](C)CO)C(=O)Cc2cc(NS(=O)(=O)c3cccs3)ccc2O[C@H]1CN(C)Cc1ccc(Cl)c(Cl)c1 | u | x
CCCN(C)C[C@@H]1OCCCC[C@@H](C)Oc2ccc(NC(=O)CCCN(C)C)cc2C(=O)N([C@H](C)CO)C[C@H]1C | 7 | 6
C[C@@H]1CN([C@H](C)CO)C(=O)c2cccc(NC(=O)Nc3ccc(C(F)(F)F)cc3)c2O[C@@H]1CN(C)C(=O)Nc1ccc(C(F)(F)F)cc1 | u | x
C[C@H]1CN([C@@H](C)CO)C(=O)Cc2cc(NC(=O)Cn3cnnn3)ccc2O[C@@H]1CN(C)Cc1ccc2c(c1)OCO2 | 23 | 15
C[C@@H]1CN([C@H](C)CO)S(=O)(=O)c2ccc(-c3cncnc3)cc2O[C@@H]1CN(C)C(=O)C1CCC1 | -1 | -2
CC(C)NC(=O)N1[C@H](CO)[C@@H]2c3ccccc3N(C(=O)C3CCCCC3)C[C@@H]21 | -3 | 3
COc1ccc(S(=O)(=O)N(C)C[C@H]2OCCCC[C@@H](C)Oc3ccc(NC(=O)NC4CCCCC4)cc3C(=O)N([C@@H](C)CO)C[C@@H]2C)cc1 | -7 | -10
CC(C)NC(=O)N(C)C[C@H]1Oc2ccc(NS(=O)(=O)c3ccc(F)cc3)cc2CC(=O)N([C@H](C)CO)C[C@@H]1C | -6 | 2
COc1ccc(NC(=O)N2C[C@H](O)COC[C@H]3O[C@H](CC(=O)N4CCN(C)CC4)CC[C@@H]32)cc1 | 7 | 4
O=C(N[C@H]1CC[C@@H](CCNS(=O)(=O)c2ccc(F)cc2)O[C@@H]1CO)c1ccccn1 | 0 | 5
O=C(Cc1ccccc1)NC[C@H]1N[C@H](CO)[C@@H]1c1ccc(-c2ccccc2)cc1 | -17 | -9
O=C(CCN1CCCCC1)N[C@H]1CC[C@H](CCn2cc(-c3cccc(F)c3)nn2)O[C@H]1CO | 10 | 10
C[C@@H]1CN([C@@H](C)CO)C(=O)Cc2cc(NS(=O)(=O)c3cccs3)ccc2O[C@@H]1CN(C)Cc1ccc(Oc2ccccc2)cc1 | -35 | -27

Going on with the list:
SMILES | Vaccinia inh | Vaccinia inh Venus
COc1cccc(S(=O)(=O)N(C)C[C@@H]2Oc3cc(C4=CCCCC4)ccc3S(=O)(=O)N([C@H](C)CO)C[C@H]2C)c1 | u | x
C[C@H](NC(=O)C[C@H]1C[C@@H]2c3cc(NC(=O)Cc4ccncc4)ccc3O[C@@H]2[C@@H](CO)O1)c1ccccc1 | -13 | 0
CN(C)Cc1cn(CC[C@@H]2CC[C@@H](NC(=O)Nc3ccccc3F)[C@H](CO)O2)nn1 | -8 | -6
CO[C@@H]1CN(C)C(=O)c2ccc(NS(=O)(=O)c3ccccc3C)cc2OC[C@H](C)NC[C@@H]1C | 3 | 7
COc1ccccc1NC(=O)N[C@@H]1CC[C@@H](CCn2cc(-c3ccccc3OC)nn2)O[C@@H]1CO | -13 | -4
CCc1nc(N2[C@H](CO)[C@H](c3ccccc3-c3ccccc3C)[C@@H]2C#N)sc1C | 8 | 6
N#C[C@H]1N[C@@H](CO)[C@@H]1c1ccccc1 | 5 | 4
CC=Cc1ccc2n(c1=O)C[C@@H]1[C@@H](CO)[C@H](C(=O)N(C)C)[C@H]2N1C(=O)c1ccc(F)cc1 (mixture of isomers) | 7 | 1
O=C(c1cnccn1)N1CC(=O)N2[C@H](C1)[C@@H](c1ccc(C#CC3CC3)cc1)[C@@H]2CO | 3 | 2
COc1ccc(NC(=O)Nc2ccc3c(c2)[C@@H]2C[C@H](CC(=O)NCCc4ccccc4)O[C@H](CO)[C@@H]2O3)cc1 | -10 | -2
Cc1noc(C)c1NC(=O)Nc1ccc2c(c1)C(=O)N([C@@H](C)CO)C[C@H](C)[C@H](CN(C)S(=O)(=O)c1c(C)noc1C)O2 | 3 | -3
C[C@@H]1CN([C@H](C)CO)C(=O)Cc2cc(NC(=O)CCC(F)(F)F)ccc2O[C@H]1CN(C)Cc1ccc(C(=O)O)cc1 | 21 | 15
C[C@@H]1CN([C@@H](C)CO)C(=O)c2cc(NC(=O)c3ccccc3)ccc2O[C@@H](C)CCCCO[C@@H]1CN(C)C(=O)Nc1cccc2ccccc12 | 13 | 14
O=C(C[C@@H]1CC[C@H]2[C@@H](COC[C@@H](O)CN2CC2CCCC2)O1)NCC1CC1 | -8 | -9
COc1ccc2c3c([nH]c2c1)[C@@H](CO)N(C(=O)CC1CC1)CC31CN(Cc2cccnc2)C1 | 3 | 1
COc1ccc(-c2ccc([C@H]3[C@H](CO)N4CCCCN(C(=O)Cc5ccncc5)C[C@@H]34)cc2)cc1 | 12 | 12
CCCNC(=O)N(C)C[C@@H]1Oc2cc(C#Cc3cccc(F)c3)ccc2S(=O)(=O)N([C@H](C)CO)C[C@@H]1C | u | x
C[C@H](CO)N1C[C@H](C)[C@H](CN(C)S(=O)(=O)c2ccccc2)Oc2ccc(NC(=O)Nc3ccc(F)cc3)cc2C1=O | -5 | 2
CC(C)CC#Cc1ccc([C@H]2[C@@H](CO)N3C(=O)CN(C(=O)NC4CCCCC4)C[C@H]23)cc1 | -23 | -14
CCCC#Cc1ccc([C@H]2[C@H]3CN(CC4CC4)CCCCN3[C@H]2CO)cc1 | -17 | -6
C[C@@H]1CN([C@@H](C)CO)C(=O)c2cccc(NC(=O)c3ccc(-c4nccs4)cc3)c2O[C@H]1CN(C)Cc1ccc(Cl)c(Cl)c1 | u | x
C[C@@H]1CN([C@H](C)CO)C(=O)Cc2cc(NC(=O)Cn3cnnn3)ccc2O[C@H]1CN(C)Cc1ccc(C(=O)O)cc1 | -3 | 5
C[C@@H]1CN([C@@H](C)CO)C(=O)c2cc(NS(=O)(=O)c3ccc(Cl)cc3)ccc2O[C@@H]1CN(C)C | -6 | 0
O=C(C[C@H]1C=C[C@@H](NC(=O)CC2CC2)[C@H](CO)O1)NCc1ccc(-c2ccccc2)cc1 | -22 | -15
C[C@@H]1CN([C@@H](C)CO)S(=O)(=O)c2ccc(C3=CCCCC3)cc2O[C@@H]1CN(C)S(=O)(=O)c1ccc(F)cc1 | -33 | -34
C[C@H](CO)N1C[C@H](C)[C@H](CN(C)C(=O)CCCN(C)C)OCCCC[C@H](C)Oc2ccc(NC(=O)NC3CCCCC3)cc2C1=O | 15 | 10

Shown as labelled records: 4 of the compounds above.
structure: C[C@@H]1CN([C@H](C)CO)C(=O)Cc2cc(NC(=O)Cn3cnnn3)ccc2O[C@H]1CN(C)Cc1ccc(C(=O)O)cc1
  Vaccinia inh: -3	Vaccinia inh Venus: 5
structure: COc1ccc2c3c([nH]c2c1)[C@@H](CO)N(C(=O)CC1CC1)CC31CN(Cc2cccnc2)C1
  Vaccinia inh: 3	Vaccinia inh Venus: 1
structure: O=C(c1cnccn1)N1CC(=O)N2[C@H](C1)[C@@H](c1ccc(C#CC3CC3)cc1)[C@@H]2CO
  Vaccinia inh: 3	Vaccinia inh Venus: 2
structure: CC=Cc1ccc2n(c1=O)C[C@@H]1[C@@H](CO)[C@H](C(=O)N(C)C)[C@H]2N1C(=O)c1ccc(F)cc1 (mixture of isomers)
  Vaccinia inh: 7	Vaccinia inh Venus: 1

This is a subset. The share of hits here may be higher or lower than overall.
